Screens deposited in PubChem by several laboratories.
Arbovirus inh = antivirals against arbovirus infection, primary screen, cell-based, full library, 10K replicate subset | arbovirus infection cell-based antiviral screen | inhibition, % at 10 µM | 200,000 compounds, 0.37% hits | AID 1251, 2008;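 active means inhibition from about 30%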;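 further: bluetongue infection of BSR cells; cell survival read as ATP light after 72 h; 0% = infected wells without compound and 100% = uninfected wells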
YopH inh = YopH tyrosine phosphatase inhibitors, primary screen, biochemical, fluorescence Ex485/Em525 | 140,000 compounds, 0.16% hits | AID 898, 2007 | inhibition, %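 (about 10 µM by stock and volumes)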 | YopH tyrosine phosphatase [Yersinia enterocolitica];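 active means inhibition of 50% or more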;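 further: controls were vehicle for no effect and minimum signal wells for full effect; inactives centre near -20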
RecA splice inh = Mtb RecA intein splicing inhibitors, primary screen, biochemical, fluorescence, HTS; cell-free RecA intein splicing; 290,000 compounds, 0.75% hits; inhibition, %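 (about 9 µM by stock and volumes)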; Protein RecA (Mycobacterium tuberculosis (strain ATCC 25618 / H37Rv)), P9WHJ3; in the data active means inhibition above about 30%; inconclusive means no clear call, values can overlap the other calls;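 further: 0% = vehicle wells and 100% = reference inhibitor control wells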
Target sequence (P9WHJ3 whole entry, looked up, canonical isoform): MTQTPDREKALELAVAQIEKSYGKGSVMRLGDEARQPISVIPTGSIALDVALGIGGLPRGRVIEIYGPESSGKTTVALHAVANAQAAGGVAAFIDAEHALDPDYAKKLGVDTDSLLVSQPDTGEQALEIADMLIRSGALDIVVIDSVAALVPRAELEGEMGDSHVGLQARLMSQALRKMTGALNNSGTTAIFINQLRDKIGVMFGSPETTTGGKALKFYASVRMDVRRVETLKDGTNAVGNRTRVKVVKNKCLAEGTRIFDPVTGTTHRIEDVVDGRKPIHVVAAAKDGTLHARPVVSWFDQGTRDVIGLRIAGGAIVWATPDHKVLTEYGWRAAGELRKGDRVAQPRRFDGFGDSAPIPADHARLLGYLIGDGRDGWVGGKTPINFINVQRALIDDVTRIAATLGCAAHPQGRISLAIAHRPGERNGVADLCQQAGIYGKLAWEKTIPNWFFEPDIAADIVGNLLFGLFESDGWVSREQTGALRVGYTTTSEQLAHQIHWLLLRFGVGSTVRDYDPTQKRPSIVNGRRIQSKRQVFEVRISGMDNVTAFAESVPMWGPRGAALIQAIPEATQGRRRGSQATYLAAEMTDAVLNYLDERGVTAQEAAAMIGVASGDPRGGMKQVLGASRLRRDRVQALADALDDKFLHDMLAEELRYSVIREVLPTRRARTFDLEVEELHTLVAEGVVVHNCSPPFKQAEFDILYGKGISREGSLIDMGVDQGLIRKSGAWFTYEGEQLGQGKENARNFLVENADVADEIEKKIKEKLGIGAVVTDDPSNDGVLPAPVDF
Mtb betalactam = beta-lactam sensitization of Mtb H37Rv, H37Rv; M. tuberculosis H37Rv growth with meropenem, percent inhibition; hits of this screen are not shown here; 330,000 compounds, 0.27% hits; inhibition, % at 25 µM;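 active means about 74% or more and at least 40 points above the plate without the antibiotic, then above 30% in a dose series; inconclusive means first-round hits that could not be retested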;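 further: growth measured after seven days incubation then overnight dye step; 0% = bacteria only wells and 100% = bacteria with antibiotic; twin plates without the antibiotic show which effects depend on it; some results filed as inactive read as strong as hits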
Mtb growth = M. tuberculosis H37Rv growth inhibitors, H37Rv strain (AID 1626). M. tuberculosis H37Rv growth inhibition; higher % means a stronger effect. one-dose inhibition, % at 10 µM; IC50 in µM for titrated hits. 220,000 compounds, 0.95% hits;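 active means confirmed in a dose series; inconclusive means inhibition above 80% but not taken into the dose series; inactive means below 80% or under 30% at every dose of the series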;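 further: bacteria incubated seven days before Alamar blue readout; 0% = bacteria only wells and 100% = bacteria with antibiotic wells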
Arbovirus inh repeat = recorded beside Arbovirus inh, whose call it bears; inhibition, %; measured here: 10K subset replicate screen; many hits read low in the repeat;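 first of two repeat runs on a subset; 0% = infected and 100% = uninfected wells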
Numbers without * were called inactive; ? = inconclusive; nt = not tested or not shown. Not all compounds are listed; rates above refer to the full screens.

SMILES	Arbovirus inh	YopH inh	RecA splice inh	Mtb betalactam	Mtb growth	others
CCNc1nc(NCC)nc(N/N=C/c2ccc(O)c(OC)c2)n1	nt	nt	-4.0	-12.6	-9.2%
CCCCc1nnc(NC(=O)c2ccc(-n3cncn3)c([N+](=O)[O-])c2)s1	nt	nt	2.5	-6.9	nt
Cc1ccc(Cc2cnc(N3C(=N)SC(c4ccccc4)C3=O)s2)cc1 (stereo not drawn)	2.4	-17.3	-1.5	62.6	1.2%
CCOC(=O)CSc1nc(C)c(C(C)=O)cc1C#N	0.1	-22.0	-0.3	-4.1	-1.8%
Cc1cccc(Cn2c(N(C)Cc3ccccc3)nc3c2c(=O)[nH]c(=O)n3C)c1	9.0	-44.7	3.1	1.8	3.3%	Arbovirus inh repeat=-1.6
Cc1cc(NC(=S)N(Cc2cccc(Br)c2)CC2CCC(C(=O)O)CC2)ccc1Cl (stereo not drawn)	-9.5	nt	6.2	nt	-2.1%
O=C1c2ccccc2N2C(=O)c3ccccc3C2N1O (stereo not drawn)	4.6	-27.6	-3.4	nt	2.5%
C[C@@H](C(=O)NC1CCN(Cc2ccccc2)CC1)N1C(=O)N2CCc3c([nH]c4ccccc34)[C@@]2(C)C1=O	nt	nt	1.6	-12.7	nt
CCCOCC(O)CC(Cc1ccccc1)C(=O)NN (stereo not drawn)	nt	nt	-1.0	-2.3	-10.3%
Cn1c(Cc2cccs2)nnc1SCC(=O)N1CCCc2ccccc21	-4.5	1.4	-0.1	1.0	3.2%
O=C1CN(C(=O)COc2ccc(F)cc2Cl)c2ccccc2N1	nt	nt	4.8	3.9	3.7%
Cc1cc(NC(=O)CNCC(c2ccccc2)N(C)C)c([N+](=O)[O-])cc1C (stereo not drawn)	nt	nt	-2.6	-6.5	nt
CCC(C)(C)n1nnnc1C(c1cc2ccc(OC)cc2[nH]c1=O)N1CCc2ccccc21 (stereo not drawn)	-29.4	-43.9	10.4	28.1	23.4%
C=CCn1c(SCC(=O)N(C)C)nc2sc3c(c2c1=O)CCC3	nt	nt	-0.3	8.3	nt
CCOP(=O)(c1ccc(N(C)C)cc1)C(O)c1ccncc1 (stereo not drawn)	nt	nt	0.4	-4.2	1.2%
Cc1nn(Cc2ccccc2)c(C)c1NC(=O)CCCn1nc([N+](=O)[O-])c(Cl)c1C	3.9	-28.6	8.9	3.0	1.1%
Cn1nc(-c2ccccn2)nc2c(=O)n(C)c(=O)nc1-2	nt	nt	95.1*	99.4	2.1%
COc1ccccc1OCc1cc(C(=O)N2CCCC(OCc3cccnc3)C2)no1 (stereo not drawn)	nt	nt	-0.5	4.2	nt
CCN(CC)C(=N)/C(C#N)=N/Nc1ccccc1	nt	nt	2.8	-1.4	-13.5%
Cc1ccc(NC(=O)Nc2cccc(Cl)c2)c(C(=O)O)c1	9.0	nt	-1.8	2.9	3.1%
CC1(C)NC(=O)N(CC(O)CN2CCCC2)C1=O (stereo not drawn)	4.8	-19.6	-1.4	-1.5	-1.3%
Cc1oc(=O)c(NC(=O)c2ccccc2)cc1C(N)=O	-2.2	nt	-0.8	-0.2	2.8%
O=C(CN1C(=O)CSc2ccccc21)NC1CCCC1	5.4	-9.0	3.6	1.3	nt
COc1ccccc1N1CCN(C(=O)C2CCN(S(=O)(=O)c3ccc(F)cc3)CC2)CC1	-15.8	nt	-1.9	-4.9	-1.9%	Arbovirus inh repeat=1.1
CN(C)S(=O)(=O)c1ccc(Cl)c(NC(=O)CN2CCN(Cc3ccc4c(c3)OCO4)CC2)c1	nt	nt	0.7	-4.0	-0.4%
More results follow:
SMILES	Arbovirus inh	YopH inh	RecA splice inh	Mtb betalactam	Mtb growth	others
COc1ccc(NC2CS(=O)(=O)CC2NCc2ccccc2)cc1 (stereo not drawn)	0.4	-6.5	-4.9	-4.0	4.7%
CC(C)(C)n1nc2c(c1NC(=O)c1ccccc1F)CS(=O)C2 (stereo not drawn)	6.5	-26.3	0.6	0.0	-5.8%	Arbovirus inh repeat=-0.7
CC1CCc2c(c3ccccc3[nH]c2=O)O1 (stereo not drawn)	2.0	-11.7	-3.7	-0.4	-2.4%
CCn1c(COc2c(C)cccc2C)nnc1SCc1nc2ccccc2c(=O)[nH]1	0.3	nt	-3.0	-5.2	3.1%
Clc1cccc(CN2CCc3c([nH]c4ccccc34)C2)c1Cl	nt	nt	18.8	-6.4	nt
Cc1cc(C)c(OCC(O)CN2CCN(C(=O)c3ccccc3)CC2)c(C)c1 (stereo not drawn)	nt	nt	0.9	-4.7	nt
Fc1ccc(N2N=C(c3cccs3)CC2c2ccccc2)cc1 (stereo not drawn)	7.4	nt	-75.2	10.3	14.4%
COc1ccccc1NC(=O)COC(=O)c1ccccc1C(=O)N1CCN(c2ccccc2)CC1	-0.6	nt	0.3	1.4	8.6%
COC(=O)c1ccc(N=Cc2c(C(F)(F)F)[nH]n(C)c2=O)cc1	5.0	nt	-2.0	76.5	91.9%
Nc1ccc(-c2nc3ccc(C(=O)O)cc3s2)cc1	3.0	-39.0	-49.2	8.3	-2.4%
CCOc1c(Cl)cc(/C=C/C(=O)N(CC)CC(=O)NCc2cccs2)cc1OC	nt	nt	-0.5	-18.9	nt
Cc1cccc(C)c1N1CCN(C(=O)Cn2cncn2)CC1	0.6	nt	-1.5	0.6	5.0%
O=C(COC(=O)c1cccnc1Cl)NCc1ccco1	3.0	nt	-1.5	3.2	-11.0%
O=S(=O)(Nc1ccccc1O)c1cccc2cccnc12	6.8	nt	-1.4	-7.2	-4.9%
O=C(Cc1n[nH]c(=O)c2ccccc12)Nc1ccc(-c2nnc3n2CCCCC3)cc1	3.0	-0.8	-1.2	0.1	-2.3%
COc1ccccc1/C=[N+](\[O-])C1SC(=S)N(C)C1(C)C (stereo not drawn)	nt	nt	-1.5	-1.7	2.4%
COc1ccc(CC(=O)N2CCN(c3ccc(C4=NNC(=O)CC4C)cc3)CC2)cc1 (stereo not drawn)	0.9	-27.6	-4.3	-4.2	nt
COc1cc(/C=N/NC(=Nc2ccc(C)cc2)c2nc3ccccc3s2)ccc1O	-29.9	-1.3	0.0	78.2	>100µM*
Cc1c(Br)c([N+](=O)[O-])nn1C(C)C(=O)N1CCCc2ccccc21 (stereo not drawn)	2.3	-3.0	nt	10.9	-0.8%
c1ccc2c(c1)[nH]c1c(N3CCC4(CC3)OCCO4)ncnc12	0.2	0.8	-1.7	6.8	-9.8%
CCOC(=O)N1CCN(C(=O)CSCc2nc(-c3ccccc3F)oc2C)CC1	14.4	-17.6	-0.5	3.6	1.7%
C=CCSc1ncc(-c2ccccc2)cn1	-8.0	nt	-0.5	30.0	1.9%
Cc1cc(C(=O)N/N=C2\CC(=O)CC(C)(C)C2)c2ccccc2n1	-4.5	-14.8	-3.9	6.4	0.4%
Cc1cc(NC(=O)C2C3C(=O)N(CCC(C)C)C(C(=O)NCc4ccccc4)C34C=CC2(C)O4)no1 (stereo not drawn)	3.2	-58.2	-6.6	8.5	-9.3%
CSc1ccccc1NC(=O)CN(C)CC(=O)Nc1ccccc1C(F)(F)F	4.2	nt	1.6	-4.7	-2.3%
Next part
SMILES	Arbovirus inh	YopH inh	RecA splice inh	Mtb betalactam	Mtb growth	others
O=C(N/N=C/c1ccc([N+](=O)[O-])o1)c1ccc(O)cc1	-7.3	-15.2	55.8*	99.3	?
Cc1c(Nc2cc(N3CCCC(C)C3)c3nonc3c2[N+](=O)[O-])c(=O)n(-c2ccccc2)n1C (stereo not drawn)	-11.5	-9.1	0.9	-4.9	nt
COc1ccc(N2Cc3ccc(OC)c(OC)c3C2=O)cc1	nt	nt	0.0	-0.9	nt
Cc1ccccc1N(C(=O)Cc1c[nH]c2ccccc12)C(C(=O)NC1CCCCC1)c1ccco1 (stereo not drawn)	0.1	-24.8	1.7	-0.4	2.2%
CC(C)CN(C(=O)CN1CCCCCC1)c1c(N)n(CC(C)C)c(=O)[nH]c1=O	-0.3	nt	nt	-10.4	-0.1%
COCCN1C(=O)N(c2cccc(OC)c2)C(=O)C1CC(=O)Nc1ccc(OC)cc1 (stereo not drawn)	nt	nt	1.6	-10.7	nt
O=C(NC1CCCCCC1)c1ccc(CS(=O)(=O)Cc2ccccc2F)o1	nt	nt	-5.5	0.1	nt
Cc1ccccc1N(CC(=O)O)S(C)(=O)=O	8.8	2.9	-2.8	-7.2	-4.6%
Cc1cc(Cl)c2oc(C(=O)N3CCN(c4cccc(C)n4)CC3)c(C)c2c1	nt	nt	7.5	44.4	nt
COc1cc(OC)c(OC)cc1CN1CCN(c2ccccc2OC)CC1	-3.2	-12.9	-5.5	-10.9	3.9%
COc1ccc(S(=O)(=O)NC(CC(=O)O)c2ccco2)cc1 (stereo not drawn)	3.2	-31.4	-0.1	-0.3	-5.7%
CCO[C@H]1OC(C(=O)N2CCOCC2)=C[C@@H](c2coc3ccccc3c2=O)[C@@H]1CCCO	2.7	nt	1.9	-0.8	-11.6%
CCCCOCCCNC(=O)CCCOc1ccccc1	6.3	-2.2	-1.4	-7.2	4.8%
COc1cc(CN2CCNC(=O)C2CC(=O)N2CCCO2)cc(OC)c1 (stereo not drawn)	4.2	nt	-0.4	-5.8	-8.2%
COc1ccc2[nH]cc(/C=N/NS(=O)(=O)c3ccc(C)cc3)c2c1	nt	nt	1.0	-2.6	-4.0%
C=CCSc1nnc(-c2nnc(SCC=C)n2-c2ccccc2)n1-c1ccccc1	-0.4	12.8	-1.0	1.6	-8.1%
COC(=O)c1cc(C#N)c(Oc2cccc(C)c2C)nc1C	7.8	-21.5	7.4	-1.3	6.4%
O=C(Cc1c(Cl)cccc1Cl)Nc1cccnc1	22.2	nt	-1.0	80.0	-3.8%
COc1ccc(N2CCN(C(=O)c3cc4c(C)nc5ccccc5c4o3)CC2)cc1	nt	nt	0.2	98.1	nt
CCN(CC(=O)NCc1cccs1)C(=O)c1ccc(S(=O)(=O)N(C)C)cc1	4.4	nt	5.1	-3.2	2.2%
CC(OC(=O)CNC(=O)c1ccc2ccccc2c1)C(=O)NC1CCCCC1C (stereo not drawn)	nt	nt	1.9	-11.5	nt
Cc1ccc(C(=O)c2cnc3ccccc3c2-c2ccccc2)cc1	-5.5	-28.5	0.2	1.2	-2.8%
O=C(NC1CCCCC1)C(c1cccnc1)N(C(=O)c1csnn1)c1ccccc1F (stereo not drawn)	nt	nt	-1.2	1.3	nt
NS(=O)(=O)c1ccc(CCNC(=O)CSc2ccsc2[N+](=O)[O-])cc1	23.4	nt	-1.4	0.8	-7.5%
Cc1cccc2cc(CN(CC3CCCO3)C(=S)Nc3ccccc3)c(=O)[nH]c12 (stereo not drawn)	16.6	-29.2	-1.2	-1.6	7.4%
Additional compounds:
SMILES	Arbovirus inh	YopH inh	RecA splice inh	Mtb betalactam	Mtb growth	others
C=CCSc1ncccc1C(=O)NCc1ccccc1	0.5	-51.6	0.5	-2.0	5.8%
O=c1cc(N/N=C/c2ccccc2)[nH]c(=O)[nH]1	nt	nt	11.9	-5.1	nt
CC(C)(O)c1cc(=O)sc2nc3ccccc3n12	-1.5	-42.5	0.2	-1.2	0.1%
OCC1CCN(Cc2nc(Cc3ccccc3Cl)no2)CC1	8.5	nt	-2.9	-2.5	0.3%
CN(C)S(=O)(=O)c1ccc(NC(=O)C2CC(=O)N(Cc3ccccc3Cl)C2)cc1 (stereo not drawn)	nt	nt	-0.2	-5.1	nt
CCn1nc(CC(=O)Nc2nnc(CC(=O)N3CCCCC3)s2)c2ccccc2c1=O	4.5	-15.2	-1.5	nt	nt
CC1CCC(C(C)C)C(OCC(O)CNC(C)(C)C)C1 (stereo not drawn)	-3.3	nt	-1.4	2.0	-1.8%

Ordered by molecular weight (ascending): part of the list above.
SMILES	Arbovirus inh	YopH inh	RecA splice inh	Mtb betalactam	Mtb growth	others
CC(C)(O)c1cc(=O)sc2nc3ccccc3n12	-1.5	-42.5	0.2	-1.2	0.1%
OCC1CCN(Cc2nc(Cc3ccccc3Cl)no2)CC1	8.5	nt	-2.9	-2.5	0.3%
CCn1nc(CC(=O)Nc2nnc(CC(=O)N3CCCCC3)s2)c2ccccc2c1=O	4.5	-15.2	-1.5	nt	nt

Among those listed so far, these contain a cyano group:
SMILES	Arbovirus inh	YopH inh	RecA splice inh	Mtb betalactam	Mtb growth	others
CCOC(=O)CSc1nc(C)c(C(C)=O)cc1C#N	0.1	-22.0	-0.3	-4.1	-1.8%
CCN(CC)C(=N)/C(C#N)=N/Nc1ccccc1	nt	nt	2.8	-1.4	-13.5%
COC(=O)c1cc(C#N)c(Oc2cccc(C)c2C)nc1C	7.8	-21.5	7.4	-1.3	6.4%
